StopGo RLuc – lowers the Renilla signal of an FMDV 2A StopGo reporter; HEK cells with a luciferase reporter of 2A StopGo recoding; Potency, µM (highest dose often 57.5 µM), inactives show at the highest dose signal change, negative = less light; 0.32% of 120,000 active; AID 1745857; active means well fitted falling curve with a large enough effect; inconclusive means small, poorly fitted or top-dose-only effect; inactive means no such curve, though single readings can be large or run the other way; further: nearly all actives have a fitted effect of over 55% in size; overnight with compound
2A firefly – FMDV 2A StopGo reporter, firefly signal. Potency, µM (highest dose often 57.5 µM), for the others: top-dose signal change, negative = less light. 0.23% of 120,000 active. HEK cells with a luciferase reporter of 2A StopGo recoding; active = well fitted falling curve with a large enough effect; inconclusive = small, poorly fitted or top-dose-only effect; inactive = no such curve, though single readings can be large or run the other way; further: nearly all actives have a fitted effect of over 60% in size; overnight with compound
Active calls of the source: *; & = joins results of further samples; [ ] = remark or other dose. On the % scale 0 is the no-effect control and ±100 the full control effect; potency means the concentration at half of the fitted maximal effect. Some of the compounds tested; count on the stated rates, not on these rows.

Preview:
COC(=O)c1sc2cccc(F)c2c1S(=O)(=O)Nc1ccc(C)cc1Cl was read as StopGo RLuc 123%[activator] and 2A firefly 12%.
Screening O=C(O)CCC(=O)NCCN1CCCC1 returned StopGo RLuc 15% and 2A firefly -1%.

The list itself, from the start:
COC(=O)c1sc2cccc(F)c2c1S(=O)(=O)Nc1ccc(C)cc1Cl was read as StopGo RLuc 123%[activator] and 2A firefly 12%.
Screening O=C(O)CCC(=O)NCCN1CCCC1 returned StopGo RLuc 15% and 2A firefly -1%.
Screening Cc1ccc(NC(=O)Cn2c(=O)oc3cc(S(=O)(=O)N4CCCCC4)ccc32)c(C)c1 returned StopGo RLuc 8.9µM* and 2A firefly inconclusive.
Screening CC(C)n1nc(C(=O)Nc2ccc(Br)cc2F)c2ccccc2c1=O returned StopGo RLuc -3% and 2A firefly 8%.
`CCn1cnc2c1c(=O)n(CC(=O)Nc1c(C)cccc1C)c(=O)n2Cc1ccccc1` gave StopGo RLuc -9% and 2A firefly -1%.
Screening COC(=O)CNc1cc(C(=O)OC)cc(C(=O)OC)c1 returned StopGo RLuc -12% and 2A firefly 3%.
`Cc1cc(S(=O)(=O)N2CCCC2c2nnc3ccccn23)ccc1Br` (stereo not given) gave StopGo RLuc 24% and 2A firefly 30%[activator].
Cc1ccc(C)c(OCC(O)Cn2nc(-c3cccs3)oc2=O)c1 (stereo not given) was read as StopGo RLuc 83%[activator] and 2A firefly 11%.
`COc1cccc(N2CC(NC(=O)c3ccc(S(=O)(=O)N4CCOCC4)cc3)CC2=O)c1` (stereo not given) gave StopGo RLuc -3%&3% and 2A firefly 1%&-14%.
O=C(Nc1ccc(Cl)cc1C(F)(F)F)c1cccc(F)c1 was read as StopGo RLuc 18% and 2A firefly 21%.
`CCC(C)c1ccc(-n2c(SCC(=O)N3CCC3)nc3ccccc3c2=O)cc1` (stereo not given) gave StopGo RLuc 10% and 2A firefly -3%.
For CN(CC(=O)Nc1cccc(F)c1)S(=O)(=O)c1ccc2c(c1)n(C)c(=O)c(=O)n2C the results were StopGo RLuc -12% and 2A firefly 13%.
CC1CCN(S(=O)(=O)c2ccc3c(c2)N(CC(=O)NCc2ccccc2Cl)C(=O)CS3)CC1 was read as StopGo RLuc 45%[activator] and 2A firefly -20%.
Screening Cc1ccc(S(=O)(=O)NCC2CCC(C(=O)N[C@H](C)C(=O)N3CCc4ccccc4C3)CC2)cc1 (stereo not given in full) returned StopGo RLuc -9% and 2A firefly -17%.
CC(=O)c1c(C)[nH]c(C(=O)C(C)Oc2ccc3c(C)cc(=O)oc3c2)c1C (stereo not given) was read as StopGo RLuc inconclusive and 2A firefly inconclusive.
CSc1ccc(CNC(=O)CN=C2NS(=O)(=O)C(c3ccc(C)c(C)c3)=C2C)cc1 was read as StopGo RLuc 169%[activator] and 2A firefly 7%.
COc1ccc(-n2c(=O)c3c4c(sc3n(Cc3ccccc3C)c2=O)CCCC4)c(OC)c1 was read as StopGo RLuc 0% and 2A firefly -8%.
`Cc1cc(C)c(NC(=O)COCc2cc(-c3cccs3)on2)c(C)c1` gave StopGo RLuc inconclusive and 2A firefly -17%.
For CCOc1cccc(/C=C(/C#N)c2nc3ccccc3[nH]2)c1 the results were StopGo RLuc -8% and 2A firefly 143%[activator].
CC(C)NC(=O)NC(=O)CSc1nc(-c2ccco2)nc2ccccc12 was read as StopGo RLuc -25% and 2A firefly 28%.
For COc1ccc(CCNC(=O)c2sc(NCC(C)C)nc2C)cc1 the results were StopGo RLuc -2% and 2A firefly 7%.
Screening O=C(O)CNC(=O)CNC(=O)CNC(=O)CSC(=O)c1ccccc1 returned StopGo RLuc -2% and 2A firefly -13%.
For O=C(CSc1nc(=O)[nH]c2c1CCCC2)NCc1ccccc1Cl the results were StopGo RLuc 2% and 2A firefly -12%.
Screening COc1ccc(-c2ccc(CCC(=O)O)n2CC(=O)Nc2cccc(Cl)c2C)cc1 returned StopGo RLuc -10% and 2A firefly -9%.
`Cc1nnc(N2C(=O)c3oc4ccccc4c(=O)c3C2c2ccc(C(C)(C)C)cc2)s1` (stereo not given) gave StopGo RLuc -11% and 2A firefly -5%.
For NC(=O)COc1ncnc2c(Cl)cc(Cl)cc12 the results were StopGo RLuc -6% and 2A firefly -2%.
Screening CCN(C(=O)C(C)Cl)C1CCCCC1 (stereo not given) returned StopGo RLuc -5% and 2A firefly -9%.
`CCOc1cc(C)c(C(C)C)cc1S(=O)(=O)n1ccnc1C` gave StopGo RLuc 237%[activator] and 2A firefly 5%.
`N#Cc1ccccc1NC(=O)C1(c2ccccc2)CCCC1` gave StopGo RLuc 12% and 2A firefly 14%.
Screening C=CCN(CC=C)C(=O)COc1cc(O)c2c(=O)cc(-c3ccccc3)oc2c1 returned StopGo RLuc 0% and 2A firefly 6%.
N#Cc1cccnc1NCCNC(=O)Nc1cn[nH]c1 was read as StopGo RLuc 14% and 2A firefly 0%.
Screening CCOc1ccc(C2C(C#N)=C(N)Oc3n[nH]c(-c4ccc(F)cc4)c32)cc1OCC (stereo not given) returned StopGo RLuc -10% and 2A firefly 8%.
`COc1ccc2[nH]c(=O)c(CN(C(=O)c3ccccn3)C3CCCCC3)cc2c1` gave StopGo RLuc 16% and 2A firefly 10%.
Screening COc1ccc(CNC(=O)Nc2ccc(F)cc2)cc1OC returned StopGo RLuc 15% and 2A firefly 36%[activator].
For Cc1ccc(S(=O)(=O)CC(=O)c2cccc(Br)c2)cc1 the results were StopGo RLuc 159%[activator] and 2A firefly -6%.
For COc1ccc2c(=O)c(-c3ccc4c(c3)OCCCO4)c(C)oc2c1 the results were StopGo RLuc 11% and 2A firefly 69%[activator].
`COc1cc(OC)cc(C(=O)NCC(c2cccs2)S(=O)(=O)c2ccc(F)c(C)c2)c1` (stereo not given) gave StopGo RLuc -9% and 2A firefly -11%.
`CC1CCCN(S(=O)(=O)c2ccc3c(c2)C(C)(C)C(=O)N3CC(=O)NC2CCCCCC2)C1` (stereo not given) gave StopGo RLuc 162%[activator] and 2A firefly 8%.
`CNC(=O)CSc1nc2c(c(C(F)(F)F)c1C#N)CCCC2` gave StopGo RLuc -3% and 2A firefly inconclusive.
Screening CSc1ccccc1C(=O)Nc1ccccc1C(C)(C)C returned StopGo RLuc 30% and 2A firefly 18%.
For N#CC1(NC(=O)CSCc2ccc(Cl)cc2)CCCCCC1 the results were StopGo RLuc 56%[activator] and 2A firefly 24%.
O=C(O)c1[nH]n(-c2ccc(S(=O)(=O)O)cc2)c(=O)c1N=Nc1ccc(S(=O)(=O)O)cc1 was read as StopGo RLuc -22% and 2A firefly -1%[11.5 µM].
For Cc1nn(-c2ccccc2)c2c1N(CCCC(=O)NCc1ccc(OC(C)C)cc1)C(=O)CS2 the results were StopGo RLuc -15% and 2A firefly -19%.
COc1ccc(Cl)cc1S(=O)(=O)Nc1c(NC2CCCC2)c2ccccc2oc1=O was read as StopGo RLuc 83%[activator] and 2A firefly -9%.
For C=Cc1ccc(Cn2c(C(=O)O)c(CNCc3ccccc3)c3ccc(C)cc32)cc1 the results were StopGo RLuc 86%[activator] and 2A firefly -22%.
Cc1cccc(C(=O)NC2CCCc3ccccc32)c1C (stereo not given) was read as StopGo RLuc 151%[activator] and 2A firefly 23%.
C=CCc1c(C)nc2nc(SCC(=O)Nc3cccc(Cl)c3)nn2c1C was read as StopGo RLuc -3% and 2A firefly -1%.
Screening CCC1c2ccsc2CCN1C(=O)CC12CC3CC(CC(Br)(C3)C1)C2 (stereo not given) returned StopGo RLuc 18% and 2A firefly -7%.
For CC1=C/C(=N/NC(=S)NC2CCCCC2)CC(C)(C)C1 the results were StopGo RLuc 0% and 2A firefly 13%.
`CC1=Nc2cc(C(=O)NC3CCCCC3)ccc2Sc2ccc(Cl)cc21` gave StopGo RLuc -2% and 2A firefly -20%.
CCOC(=O)N1CCN(S(=O)(=O)N2CCCC(C(=O)NCc3cc(OC)ccc3OC)C2)CC1 (stereo not given) was read as StopGo RLuc -17% and 2A firefly -17%.
`CC1=C(C(=O)Nc2ccc(Cl)cc2)C(C(C)C)n2nc(SCc3cccc(C)c3)nc2N1` (stereo not given) gave StopGo RLuc -8% and 2A firefly -19%.
Screening COc1cc(NC(=O)c2cc3c(s2)-c2ccccc2OC3)cc(OC)c1OC returned StopGo RLuc inconclusive and 2A firefly inconclusive.
`Cn1c(=O)c(=O)n(C)c2cc(S(=O)(=O)CCC(=O)Nc3ccc(F)cc3)ccc21` gave StopGo RLuc 8% and 2A firefly 0%.
For COc1cc(C(=O)Nc2cccc(Cl)c2N2CCCC2)cc(OC)c1OC the results were StopGo RLuc inconclusive and 2A firefly inconclusive.
`CSc1ncc(Cl)c(C(=O)N(C)c2ccccc2)n1` gave StopGo RLuc 9% and 2A firefly 10%.
CCCC(CCC)C(=O)Nc1ccc(OC)cc1 was read as StopGo RLuc -10% and 2A firefly 7%.
For Fc1ccc(CNC(=S)Nc2ccccc2)cc1 the results were StopGo RLuc 197%[activator] and 2A firefly 51%[activator].
`O=c1[nH]c2ccc(-c3csc(NC4CCCC4)n3)cc2o1` gave StopGo RLuc 87%[activator] and 2A firefly 175%[activator].
For COCCn1c(C)c(C)c(S(=O)(=O)c2ccccc2)c1NC(=O)c1ccc(OC)cc1 the results were StopGo RLuc 17% and 2A firefly -17%.

Some of these compounds in order of molecular weight, descending.
`CC1=C(C(=O)Nc2ccc(Cl)cc2)C(C(C)C)n2nc(SCc3cccc(C)c3)nc2N1` (stereo not given) gave StopGo RLuc -8% and 2A firefly -19%.
Screening CCC1c2ccsc2CCN1C(=O)CC12CC3CC(CC(Br)(C3)C1)C2 (stereo not given) returned StopGo RLuc 18% and 2A firefly -7%.
`Cn1c(=O)c(=O)n(C)c2cc(S(=O)(=O)CCC(=O)Nc3ccc(F)cc3)ccc21` gave StopGo RLuc 8% and 2A firefly 0%.
For COc1cc(C(=O)Nc2cccc(Cl)c2N2CCCC2)cc(OC)c1OC the results were StopGo RLuc inconclusive and 2A firefly inconclusive.
C=CCc1c(C)nc2nc(SCC(=O)Nc3cccc(Cl)c3)nn2c1C was read as StopGo RLuc -3% and 2A firefly -1%.
`CC1=Nc2cc(C(=O)NC3CCCCC3)ccc2Sc2ccc(Cl)cc21` gave StopGo RLuc -2% and 2A firefly -20%.
`O=c1[nH]c2ccc(-c3csc(NC4CCCC4)n3)cc2o1` gave StopGo RLuc 87%[activator] and 2A firefly 175%[activator].
`CSc1ncc(Cl)c(C(=O)N(C)c2ccccc2)n1` gave StopGo RLuc 9% and 2A firefly 10%.
For CC1=C/C(=N/NC(=S)NC2CCCCC2)CC(C)(C)C1 the results were StopGo RLuc 0% and 2A firefly 13%.
Cc1cccc(C(=O)NC2CCCc3ccccc32)c1C (stereo not given) was read as StopGo RLuc 151%[activator] and 2A firefly 23%.
For Fc1ccc(CNC(=S)Nc2ccccc2)cc1 the results were StopGo RLuc 197%[activator] and 2A firefly 51%[activator].
CCCC(CCC)C(=O)Nc1ccc(OC)cc1 was read as StopGo RLuc -10% and 2A firefly 7%.

Next entries.
`CCc1c(C(=O)O)csc1C` gave StopGo RLuc -7% and 2A firefly -4%.
For Cc1cc(C)c(NC(=O)c2ccc(C)c(S(=O)(=O)N3CCCCC3)c2)c(Cl)c1 the results were StopGo RLuc 8% and 2A firefly inconclusive.
For CSc1ccc(CNC(=O)CCn2ccc3cc(S(=O)(=O)N4CCC(C)CC4)ccc32)cc1 the results were StopGo RLuc 0% and 2A firefly -17%.
For O=S1(=O)N=CN(Cc2c(F)cccc2Cl)c2cc(C(F)(F)F)ccc21 the results were StopGo RLuc 0% and 2A firefly 0%.
Cc1cc(C)c(C(=O)O)c(C)c1 was read as StopGo RLuc 0% and 2A firefly -10%.
O=C1CN(C(=O)Cc2ccc(F)cc2)C(c2ccccc2)c2cc(Br)ccc2N1 (stereo not given) was read as StopGo RLuc -13% and 2A firefly -12%.
COc1ccc(CNC(=O)C(C)Oc2ccc(CC(=O)O)cc2)cc1 (stereo not given) was read as StopGo RLuc -3% and 2A firefly 15%.
For O=C(Nc1nc2n(n1)C(c1ccc(F)cc1)C=C(c1ccc(Cl)cc1)N2)c1ccco1 (stereo not given) the results were StopGo RLuc -9% and 2A firefly -6%.
For Cn1nc(C(=O)OCCOc2ccc(Br)cc2)c2ccccc2c1=O the results were StopGo RLuc -4% and 2A firefly 9%.
O=C(CN1C(=O)c2ccccc2S1(=O)=O)c1ccc(-c2ccc(Br)cc2)cc1 was read as StopGo RLuc -10% and 2A firefly 33%[activator].
`CC1(C)CC(=O)c2c(oc3c(Cl)cc(NS(=O)(=O)c4ccc(Br)cc4)cc23)C1` gave StopGo RLuc -7% and 2A firefly 2%.
`Cc1ccc2scc(N3CCc4ccccc4C3)c(=O)c2c1` gave StopGo RLuc 240%[activator] and 2A firefly 354%[activator].
CN(C)C(=O)c1ccc(NC(=O)Cn2nc(-c3ccc(Cl)cc3)c3ccccc3c2=O)cc1 was read as StopGo RLuc -7% and 2A firefly -4%.
For CCn1c(SCC(=O)c2ccc(C#N)cc2)nnc1-c1ccccc1C the results were StopGo RLuc -3% and 2A firefly -7%.
For COC(=O)/C(C#N)=N\O the results were StopGo RLuc 8% and 2A firefly 13%.
Screening Cc1cc(C(=O)CSc2ccccc2Br)c(C)[nH]1 returned StopGo RLuc 1% and 2A firefly 24%.
`O=C(Nc1ccccc1)N(Cc1cccc(O)c1)C1CCC(O)CC1` (stereo not given) gave StopGo RLuc -4% and 2A firefly 114%[activator].
`Cc1cccc(Cn2c(SCc3ccc(C(=O)NCc4ccccc4F)cc3)nc3cccnc32)c1` gave StopGo RLuc 37%[activator] and 2A firefly -19%.
Cc1cc(=O)oc2cc(Br)ccc12 was read as StopGo RLuc -1% and 2A firefly 10%.
`Cc1ccn2c(Nc3ccc4c(c3)OCO4)c(-c3ccc(N(C)C)cc3)nc2c1` gave StopGo RLuc 8% and 2A firefly 130%[activator].
For CNc1c(NC(=O)c2cc(OC)cc(OC)c2)c(=O)oc2ccccc12 the results were StopGo RLuc 79%[activator] and 2A firefly 8%.
